From PubChem BioAssay
Six1-Eya2 inh: blocks human Six1 binding to Eya2 | Q15475+O00167 | AlphaScreen GST-Six1/His-Eya2 binding, biochemical; active compounds read low; control for the full effect not named in the record | activity change, % (no concentration beside the values) | 360,000 tested, 0.56% active | AID 651725; in the data active = activity change below about -65%; inconclusive = about -30% to -65%; inactive = above about -30%; note: % is set by controls: 0 for no effect and ±100 for the full control effect
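Compounds are tested against tagged Six1 and Eya2 proteins bridged by glutathione donor and nickel acceptor beads; after a one-hour incubation at 37 °C without light, AlphaScreen emission is recorded.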
D2 ag: activates the human D2 dopamine receptor; activation, % (no concentration beside the values); P14416; DiscoveRx PathHunter D2 beta-arrestin, luminescence, 90 min; 100% = 57 uM dopamine signal; 360,000 tested, 0.084% active; in the data active = activation above about 40%; inconclusive = about 15% to 40%; inactive = below about 15%; note: compound concentration not given in the record; the text of the record calls up to 30% inactive
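DiscoveRx PathHunter D2 beta-arrestin cells (2,100/well) attached overnight, then compound-stimulated 90 min at 37 C in HBSS/10 mM HEPES/0.1% Tween-20 buffer; beta-galactosidase complementation read by luminescence after 1 h at ambient temperature. Dopamine 57 uM final (EC100) as control.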
D2 PAM: human D2 receptor positive allosteric modulation. P14416. potentiation, % (concentration not given with the values). DiscoveRx D2 beta-arrestin cells, luminescence, 90 min; 100% = 57 uM dopamine signal. 360,000 tested, 0.23% active; active = potentiation of 50% or more; inconclusive = 30% to 50%; inactive = 30% or less;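 note: compound concentration not given in the record; tested on top of an EC20 dose of dopamine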
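D2 cells co-treated with compound plus 50 nM dopamine (EC20) for 90 min at 37 deg C to detect potentiation. Beta-arrestin recruitment was read as enzyme-fragment luminescence after 1 h at ambient temperature. Full response was set by 57 uM dopamine.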
Sfp inh: inhibitors of Bacillus subtilis Sfp phosphopantetheinyl transferase; Q9F4F7; Biochemical Sfp PPTase activity, qHTS; Potency, µM, inactives show max response, negative = inhibition, usual class: inhibitors; 310,000 tested, 3.5% active; active = well fitted inhibition curve with a large enough effect; inconclusive = small, poorly fitted or top-dose-only effect, or another doubt; inactive = no such curve, though single readings can be large or run the other way;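 note: the enzyme is Sfp with the accession as filed and its product quenches rhodamine fluorescence; potency is the fitted concentration of half-maximal effect; 0% = enzyme reaction without inhibitor and -100% = no enzyme wells; top concentration of the series not given in the record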
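Buffer: 50 mM Hepes-Na pH 7.6, 10 mM MgCl2, 0.01% Nonidet P-40, 0.01% BSA. Enzyme 15 nM, pre-exposed to compound 15 min; substrates then added and fluorescence change tracked over 30 min.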
TRPV1 PAM: human TRPV1 potentiation; TRPV1-expressing cells, Fluo-8 calcium influx, capsaicin EC20 potentiation; host cell line not named in the record; control for the full effect not named in the record; potentiation, % at 8.33 µM; AID 540277; Q8NER1; 320,000 tested, 0.02% active; active means potentiation above 80%; inconclusive means 30% to 80%; inactive means below 30%; note: 0% is about no effect
Target sequence (Q8NER1 whole entry, looked up): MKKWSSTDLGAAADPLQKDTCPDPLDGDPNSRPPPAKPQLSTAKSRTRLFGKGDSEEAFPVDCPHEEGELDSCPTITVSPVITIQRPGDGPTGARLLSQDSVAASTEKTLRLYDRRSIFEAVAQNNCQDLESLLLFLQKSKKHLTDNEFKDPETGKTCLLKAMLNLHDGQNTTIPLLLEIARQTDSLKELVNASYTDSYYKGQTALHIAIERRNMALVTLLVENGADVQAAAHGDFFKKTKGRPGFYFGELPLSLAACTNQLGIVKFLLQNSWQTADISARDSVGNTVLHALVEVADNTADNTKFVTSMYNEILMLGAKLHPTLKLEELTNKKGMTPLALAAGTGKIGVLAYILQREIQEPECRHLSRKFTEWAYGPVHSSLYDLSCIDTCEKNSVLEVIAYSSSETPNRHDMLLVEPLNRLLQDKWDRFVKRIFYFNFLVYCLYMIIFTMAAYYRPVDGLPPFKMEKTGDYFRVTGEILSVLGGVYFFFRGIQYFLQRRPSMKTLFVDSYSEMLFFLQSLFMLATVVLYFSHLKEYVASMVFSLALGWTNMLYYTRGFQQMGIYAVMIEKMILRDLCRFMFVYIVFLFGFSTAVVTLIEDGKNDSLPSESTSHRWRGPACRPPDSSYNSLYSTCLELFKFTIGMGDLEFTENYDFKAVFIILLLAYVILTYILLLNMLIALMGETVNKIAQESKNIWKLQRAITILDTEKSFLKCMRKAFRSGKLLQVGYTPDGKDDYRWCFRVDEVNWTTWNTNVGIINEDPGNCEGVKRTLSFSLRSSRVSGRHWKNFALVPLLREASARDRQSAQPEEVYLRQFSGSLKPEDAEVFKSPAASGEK
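Cells expressing TRPV1 were dye-loaded with Fluo-8 and read kinetically: 10 s baseline, 3 min after compound (agonist portion), then 2 min after EC20 capsaicin (allosteric enhancer portion). Calcium-bound dye fluorescence at 480/520 nm.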
PINK1 expr mod: changes PINK1 expression. PINK1 immunofluorescence, high-content cytometry, 24 h. Potency, µM (highest dose often 76.6 µM), without a hit: top-dose activation (PINK1 increase), usual class: activators. 410,000 tested, 0.2% active. AID 624263; active = well fitted activation curve with a large enough effect; inconclusive = small, poorly fitted or top-dose-only effect; inactive = flat fitted curve, though single readings scatter; cell line not stated here;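 note: potency is the fitted concentration of half-maximal effect; % of control where 0% means no effect; nearly all actives have a fitted effect of over 65% in size; a mitochondrial uncoupler was the plate control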
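A stable cell line was treated with compounds at 5 concentrations for 24 hours, with CCCP as control. PINK1 levels and mitochondrial localization were measured by immunofluorescence with mitochondrial, cell and nuclear markers after fixation, read by laser-scanning cytometry.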
CtBP-E1A inh: CtBP/E1A binding inhibition; AlphaScreen GST-E1A/His-CtBP binding, 1536-well; active compounds read low; control for the full effect not named in the record; activity change, % (test concentration not listed); 340,000 tested, 0.49% active; AID 651724; in the data active means activity change below about -65%; inconclusive means about -30% to -65%; inactive means above about -30%; note: % is set by controls: 0 for no effect and ±100 for the full control effect
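Steps: dispense buffer (Tris pH 8.0, NaCl 300 mM, TCEP 1 mM, BSA, Tween 20); add 5X protein mix (GST-E1A, His-CtBP, 125 nM each); pin 23 nL compound; 2 h at 37 °C, dark; add 5X beads (50 ug/mL); 1 h; read.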
An asterisk follows results filed as active; ? = inconclusive; . = not tested or not shown; [ ] = remark or other dose.

no.	SMILES	Six1-Eya2 inh	D2 ag	D2 PAM	Sfp inh
1	O=C(CNC(=O)c1cccs1)NCC(=O)OCc1c(Cl)cccc1Cl	2	-0.6	-7	7%
2	COc1ccccc1N1CCN(Cc2cc(=O)oc3cc(C)cc(C)c23)CC1	4	-3.4	-10	.
3	CC(Oc1ccccc1)C(=O)NNC(=O)c1ccccn1 (stereo not drawn)	-67*	13	7	-11%
4	COc1cc(C(=O)NCc2ccc(S(N)(=O)=O)cc2)ccc1OCC(=O)Nc1cccc(C(F)(F)F)c1	1	1.5	7	.
5	CC(CN(C)Cc1ccccc1)OC(=O)c1cccs1 (stereo not drawn)	9	-1.4	-12	-3%
6	N=c1c(S(=O)(=O)c2ccc(Cl)cc2)cc2c(=O)n3ccccc3nc2n1Cc1ccco1	-2	-5.0	-11	-11%
7	Cc1ccccc1C(=O)/C=C1\NC(=O)CS1	-1	-3.9	-12	-6%
8	CC(=O)N(c1ccccc1)C1CC(C)N(C(=O)c2ccccc2)c2ccccc21 (stereo not drawn)	-13	1.9	-2	14%

no.	TRPV1 PAM	PINK1 expr mod	CtBP-E1A inh
1	2	.	4
2	.	-0.4%	4
3	5	-3.9%	22
4	11	1.8%	-8
5	3	-2.7%	11
6	1	3.7%	-12
7	?	5.4%	6
8	-24	-0.8%	2

3 of these compounds in a different format:
entry	Compound	Six1-Eya2 inh	D2 ag	D2 PAM	Sfp inh	TRPV1 PAM	PINK1 expr mod	CtBP-E1A inh
3	CC(Oc1ccccc1)C(=O)NNC(=O)c1ccccn1 (stereo not drawn)	-67*	13	7	-11%	5	-3.9%	22
1	O=C(CNC(=O)c1cccs1)NCC(=O)OCc1c(Cl)cccc1Cl	2	-0.6	-7	7%	2	.	4
6	N=c1c(S(=O)(=O)c2ccc(Cl)cc2)cc2c(=O)n3ccccc3nc2n1Cc1ccco1	-2	-5.0	-11	-11%	1	3.7%	-12

(further entries)
no.	SMILES	Six1-Eya2 inh	D2 ag	D2 PAM	Sfp inh
9	c1cc(N2CCOCC2)ccc1-c1ccc2nncn2c1	2	-5.8	-6	.
10	CCOC(=O)Cc1csc(NC(=O)c2ccc3ccccc3n2)n1	-3	1.7	-3	-17%
11	CC(C)=CCN1CCN(CCC2=C(C)CCCC2(C)C)CC1CCO (stereo not drawn)	-5	-3.2	-5	16%
12	CCc1cc(=O)[nH]c(SCC(=O)NCc2ccc3c(c2)OCO3)n1	-1	-1.0	4	.
13	CC(CC(=O)O)CC(=O)Nc1ccc(Br)cc1 (stereo not drawn)	14	-1.3	-3	11%
14	O=C1/C(=C/c2ccccc2)NC(=S)N1C(c1ccccc1)c1ccccc1	-2	-2.5	-16	6%
15	COc1ccc(O)c(-c2[nH]ncc2C(=O)c2ccccc2C)c1	0	-1.9	-3	15%
16	CC1CCN(S(=O)(=O)c2ccc(C(=O)NC3CCS(=O)(=O)C3)cc2)CC1 (stereo not drawn)	-3	-1.0	-2	.

no.	TRPV1 PAM	PINK1 expr mod	CtBP-E1A inh
9	.	-0.7%	2
10	3	0.9%	-1
11	-7	0.4%	-16
12	-3	1.4%	-1
13	-2	0.3%	3
14	-2	7.8%	0
15	4	-1.6%	0
16	-5	0.6%	4

(list continues)
no.	SMILES	Six1-Eya2 inh	D2 ag	D2 PAM	Sfp inh
17	C=CCSc1nnc(-c2c[nH]c3ccccc23)n1CC	-5	0.1	0	-6%
18	O=C(Nc1c(F)cc(F)cc1Br)c1cccnc1	-1	0.0	6	10%
19	CN1CCN(C(=O)NC2CCCN2S(=O)(=O)c2ccc(Cl)cc2)CC1 (stereo not drawn)	9	-4.0	-18	21%
20	O=c1c2ccccc2nc2sc3ccccc3n12	-5	-1.2	-5	2%
21	COc1ccc(C(=O)NNC(=O)CSc2nc(C(C)C)nc3ccccc23)cc1	-1	3.2	1	15%
22	CN(C(=O)CSc1nnc(C2CC2)n1C1CC1)C1(C#N)CCCCC1	12	-0.7	2	.
23	COC(=O)C(O)(CC(=O)Nc1ccc(Cl)cc1Cl)C(F)(F)F (stereo not drawn)	-1	-1.2	-9	2%
24	O=C(Nc1ccc(-n2ccnc2P(=O)(O)c2ccccc2)cc1)c1ccccc1Cl	-4	-1.2	-10	-1%

no.	TRPV1 PAM	PINK1 expr mod	CtBP-E1A inh
17	?	2.4%	2
18	-3	3.1%[38.3 µM]	3
19	-17	-3.8%	0
20	?	1.9%	-21
21	-2	4.4%	-11
22	-4	-2.0%	-3
23	-15	4.5%[38.3 µM]	4
24	?	?	-1

The list goes on.
no.	SMILES	Six1-Eya2 inh	D2 ag	D2 PAM	Sfp inh
25	CCN1C[C@@H]2[C@@H]3C(=O)N(C)C(=O)[C@@H]3[C@](Cc3ccccc3)(C1=O)N2C(=O)c1ccc(C(C)(C)C)cc1	10	-2.2	11	.
26	CC(C)N(C(=O)COC(=O)Cn1cnc2ccccc21)c1ccccc1	0	-3.6	15	.
27	O=C1c2cccnc2C(=O)N1Cc1ccccc1	-9	-1.7	-2	12%
28	CCOC(=O)C1CCCN(C(=O)c2cccc(N3C(=O)c4ccccc4C3=O)c2)C1 (stereo not drawn)	2	-0.9	-4	.
29	COC(=O)C1=NNC2C(=O)N(C3CCCCC3)C(=O)C12 (stereo not drawn)	0	1.0	-4	12%
30	O=C(NCc1ccc(Cl)cc1)c1csc(-c2cccnc2)n1	1	-3.2	-6	21%
31	CCCCn1nnnc1C(c1ccccc1)N1CCc2ccccc2C1 (stereo not drawn)	15	.	.	.
32	Cc1nc2scc(C)n2c(=O)c1S(=O)(=O)N1CCN(c2ccccc2F)CC1	0	3.5	-8	2%

no.	TRPV1 PAM	PINK1 expr mod	CtBP-E1A inh
25	.	1.2%	.
26	4	-1.8%	11
27	-7	1.1%	?
28	2	1.9%	.
29	6	1.1%	9
30	-9	1.8%	-7
31	.	-0.9%	5
32	-3	-0.8%	5

More compounds:
no.	SMILES	Six1-Eya2 inh	D2 ag	D2 PAM	Sfp inh
33	COc1cc2nc(C3CC3)n(NC(=O)c3ccc(Cl)cc3)c(=O)c2cc1OC	-3	0.9	-14	14%
34	CSc1ccccc1NC(=O)CN(C1CCCCC1)S(C)(=O)=O	0	-3.3	-1	8%
35	C/C(NCCN1CCOCC1)=C(\C#N)C(N)=O	-5	-4.5	-12	-3%
36	CC(C)CC(=O)NC(=S)Nc1ccc(N2CCOCC2)cc1	1	5.5	-2	-6%
37	Cc1c(C(=O)NC2CC2)oc2ccc(S(=O)(=O)N3CCCCCC3)cc12	-3	0.5	6	0%
38	Cc1ccc(C)c(N2CCN(C(=O)CN(C)S(=O)(=O)c3ccc4c(c3)CCC(=O)N4)CC2)c1	-4	7.1	0	1%
39	CC1(C)C(=O)Nc2ccccc2N1C(=O)COc1cccnc1[N+](=O)[O-]	9	-2.1	1	3%
40	CC(C)(C)C(=O)Nc1sc2c(c1C#N)CCCCC2	-2	-1.8	1	-4%

no.	TRPV1 PAM	PINK1 expr mod	CtBP-E1A inh
33	1	?	1
34	-16	.	3
35	24	-1.5%	-1
36	-6	0.4%	.
37	-24	1.4%	-1
38	.	0.0%	-1
39	20	0.7%	5
40	5	4.2%	-2

(listing goes on)
no.	SMILES	Six1-Eya2 inh	D2 ag	D2 PAM	Sfp inh
41	N#CCCn1ncc2ccccc21	7	-0.2	-9	3%
42	FC(F)Sc1ccc(-n2cc(-c3ccc(Cl)cc3)[n+]3c2CCC3)cc1	2	1.0	-35	-11%
43	Cc1cnc(CNC(=O)CC2C(=O)NCCN2Cc2cccc(F)c2F)cn1 (stereo not drawn)	3	-5.8	-4	3%
44	O=C1COc2ccc(C(=O)COC(=O)c3ncc(Cl)c(Cl)c3Cl)cc2N1	2	-6.1	-18	.
45	COC(=O)C1(C)NC(c2ccccc2C)C2C(=O)N(c3ccc(F)cc3)C(=O)C21 (stereo not drawn)	3	6.2	3	8%
46	C[C@@H]1Cn2cnc(C(=O)N[C@@H](Cc3c[nH]c4ccccc34)C(=O)OC(C)(C)C)c2C(=O)N1	-10	-0.4	.	.
47	CC(C)CC(=O)n1sc(NC(=O)c2ccccc2)nc1=O	0	-3.0	-21	-4%
48	CC(CO)(CO)NC(=O)c1ccc(=O)[nH]n1	8	-1.7	0	8%

no.	TRPV1 PAM	PINK1 expr mod	CtBP-E1A inh
41	-7	-1.9%	7
42	1	6.7%	-8
43	0	0.7%	1
44	-2	4.7%	9
45	-9	2.4%	6
46	.	-0.1%	-7
47	4	-1.1%	25
48	11	-0.8%	1

Additional structures:
no.	SMILES	Six1-Eya2 inh	D2 ag	D2 PAM	Sfp inh
49	CC(=O)NCCCC(=O)NNC1CC(=O)N(c2cccc(Cl)c2)C1=O (stereo not drawn)	1	-4.0	-5	?
50	Fc1ccc(CSc2ccc(-c3ccc4c(c3)OCO4)nn2)cc1	-9	-2.3	10	3%
51	O=C(Nc1ccc2c(c1)OCCO2)N1CCN(Cc2ccccc2)CC1	-1	-5.5	-1	15%
52	CC1(C(=O)NS(=O)(=O)c2cccc(OC(F)F)c2)CCN1C(=O)Cc1cccs1 (stereo not drawn)	2	8.0	4	.
53	Cc1cccc(C)c1-n1nnnc1C1(C)CCC(=O)N1Cc1cccc(C(F)(F)F)c1 (stereo not drawn)	-2	.	.	.
54	O=C(/C=C/c1ccc([N+](=O)[O-])cc1)NCc1ccc2c(c1)OCO2	-6	2.2	-1	0%
55	Cc1ccsc1C(=O)NCCc1ccc(S(N)(=O)=O)cc1	-1	5.8	4	5%
56	CC(C)CNC(=O)C(=O)NCC1OCCCN1S(=O)(=O)c1ccc2c(c1)OCCO2 (stereo not drawn)	1	-0.3	-24	16%

no.	TRPV1 PAM	PINK1 expr mod	CtBP-E1A inh
49	26	-0.4%	7
50	-4	?	19
51	-13	-0.5%	-9
52	.	0.5%	5
53	.	-0.1%	7
54	-19	4.1%	8
55	-21	3.8%	6
56	4	-0.1%	-2

Carrying on:
no.	SMILES	Six1-Eya2 inh	D2 ag	D2 PAM	Sfp inh
57	NC(=O)c1c(NC(=O)C2COc3ccccc3O2)sc2c1CCN(Cc1ccccc1)C2 (stereo not drawn)	4	-15	-23	12%
58	O=C(Cc1c[nH]c2ccccc12)NCc1ccc(Cl)cc1	0	0.1	-5	7%
59	C=CCNc1ncnc2ccc(Br)cc12	4	4.0	21	13%
60	O=C1CCC(=O)N1CCC(=O)N(C(=O)NC1CCCCC1)C1CCCCC1	4	-5.4	-6	.
61	COC(=O)c1ccc(NS(=O)(=O)NC(=O)c2c[nH]c3ccccc23)cc1	3	-5.7	4	13%

no.	TRPV1 PAM	PINK1 expr mod	CtBP-E1A inh
57	3	14%	0
58	-4	6.5%	.
59	0	1.2%	3
60	.	0.4%	4
61	15	-1.1%	7
